Screening data from PubChem BioAssay.
PKD1 kinase inh: inhibitors of human PKD1 kinase, biochemical, fluorescence polarization; Serine/threonine-protein kinase D1 (Homo sapiens), Q15139; PKD1 kinase fluorescence polarization assay; inhibition, %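 (about 10 µM by stock and volumes)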; actives 0.056% (n = 200,000);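 active = inhibition of 50% or more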;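 also: controls were vehicle for no effect and a reference inhibitor for full effect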
Target sequence (Q15139 whole entry, looked up): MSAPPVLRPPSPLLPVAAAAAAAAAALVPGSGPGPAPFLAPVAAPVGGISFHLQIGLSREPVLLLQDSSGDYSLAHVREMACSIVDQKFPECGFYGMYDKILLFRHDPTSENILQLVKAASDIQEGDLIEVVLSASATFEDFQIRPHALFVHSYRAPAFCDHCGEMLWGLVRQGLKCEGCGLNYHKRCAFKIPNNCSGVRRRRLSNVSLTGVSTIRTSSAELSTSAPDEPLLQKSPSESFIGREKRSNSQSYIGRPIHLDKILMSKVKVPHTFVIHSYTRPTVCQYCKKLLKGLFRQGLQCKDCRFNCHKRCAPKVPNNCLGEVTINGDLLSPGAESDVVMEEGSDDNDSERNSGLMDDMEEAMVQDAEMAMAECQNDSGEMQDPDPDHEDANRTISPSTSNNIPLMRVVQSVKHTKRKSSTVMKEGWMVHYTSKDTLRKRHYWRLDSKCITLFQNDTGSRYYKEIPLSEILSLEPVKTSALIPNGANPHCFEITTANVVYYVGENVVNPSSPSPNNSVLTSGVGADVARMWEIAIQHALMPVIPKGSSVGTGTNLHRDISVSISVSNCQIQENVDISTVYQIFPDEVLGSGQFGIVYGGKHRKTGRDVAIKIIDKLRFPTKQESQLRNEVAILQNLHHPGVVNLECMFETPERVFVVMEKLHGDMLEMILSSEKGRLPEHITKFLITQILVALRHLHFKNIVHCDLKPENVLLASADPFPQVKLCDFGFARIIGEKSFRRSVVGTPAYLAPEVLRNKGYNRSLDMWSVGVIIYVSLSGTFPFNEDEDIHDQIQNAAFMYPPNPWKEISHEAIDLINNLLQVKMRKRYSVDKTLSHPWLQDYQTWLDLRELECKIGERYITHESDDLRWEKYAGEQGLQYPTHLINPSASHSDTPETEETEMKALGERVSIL
Insulin prom inh: inhibitors of insulin promoter-driven GFP, primary screen, imaging, TRM-6 cells (human fetal islet line), eGFP reporter, cell count | inhibition, % at 2 µM | reporter expression induced with tamoxifen | AID 1273, 2008 | actives 0.9% (n = 130,000);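 active = inhibition above the mean plus 3 SD, with well images judged a real hit on visual review, cut at about 60% in these data, passing the limit was not always enough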
RGS16-Gao HTS: modulators of RGS16 binding to Galphao, primary screen, biochemical, human proteins, multiplexed bead flow cytometry; Regulator of G-protein signaling 16 (Homo sapiens) + Guanine nucleotide-binding protein …; actives 0.38% (n = 220,000); bead-based flow cytometry RGS16-Galphao binding, fluorescence; actives lie on both sides; binding response (% of control), % at 10 µM;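 active = below 25% or above 175%, edge rows of some plates excepted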;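 also: Galphao activated by GDP with aluminum fluoride before binding; 100% = wells without compound and 0% = beads without RGS; some results beyond the cut were filed as inactive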
GALR2 ag: GALR2 receptor agonists, primary screen, cell-based; GALR2-expressing cells, agonist activation read-out; activation, %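 (tested at 5 µM)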; actives 0.48% (n = 140,000); AID 803, 2007;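 active = above mean plus 3 SD of all compounds, about 5% in these data, not always enough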;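 also: 0% = vehicle buffer wells and 100% = reference agonist at full effect; tested in CHO reporter cells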
HSV augment: enhancers of HSV replication in host cells, fold increase, host cell viability; HSV replication augmentation in cells; actives 0.005% (n = 220,000); maximum fold increase; AID 1956, 2009;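 active = peak rise of 1.5-fold or more in the series; tested in PC3 cells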;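 also: first round at 10 µM; read as green reporter fluorescence; hits show the peak of a series up to 25 µM; 1 = signal of infected wells without compound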
Insulin prom inh cell count: also measured in Insulin prom inh; calls as there; normalized cell count, %; measured here: cell count, toxicity; reference of the scale not given here;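 cells exposed to compound for 48 h; stained nuclei by imaging scaled within each plate; lower means fewer cells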
HSV augment primary fold: also measured in HSV augment; calls as there; fold increase; compound at 10 µM; measured here: primary screen fold increase 10 uM; tested in PC3 cells;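 GFP signal in the first replicate; 1 = infected wells without compound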
Active calls of the source: *; i = inactive; x = not tested or not shown. Random draw from the library; any-hit rate near 1.3%.

Compound	PKD1 kinase inh	Insulin prom inh	Insulin prom inh cell count	RGS16-Gao HTS	GALR2 ag	HSV augment	HSV augment primary fold
COc1cccc(/C=N/NC(=O)C(c2ccncc2)N2CCOCC2)c1 (configuration not stated)	x	x	x	97	x	i	0.95
Cc1cc(NC(=O)CSc2nnc(-c3cccnc3)n2N)no1	-3	11	57	103	-3.0	i	1
O=c1cc(CO)[nH]cc1OCc1ccccc1	x	x	x	99	x	i	1.2
Cc1cc(C)n(-c2nc3ccccc3nc2Nc2ccc3[nH]c(=O)[nH]c3c2)n1	6	1	107	109	-1.9	i	0.89
CCN(CC)CCC(=O)Nc1cccc2c1C(=O)c1ccccc1C2=O	x	x	x	96	x	i	0.78
CC1CCC(NC(=O)c2ccc(CNc3c(NC4CCCCC4)c(=O)c3=O)cc2)CC1 (configuration not stated)	4	-5	103	102	-0.3	x	x
COc1cc(OC)cc(C(=O)Nc2ccccc2-c2nnn(CC(N)=O)n2)c1	10	-50	52	33	x	i	0.91
COC(=O)Cc1ccc(NC(=O)c2ccc(C)c(C)c2)cc1	1	0	123	103	-1.6	i	0.8
Cc1cc(C)nc(NS(=O)(=O)c2ccc(NC(=O)Nc3ccccc3F)cc2)n1	x	x	x	103	x	i	0.98
CC1CC(C(F)F)n2nc(C(=O)Nc3sc4c(c3C#N)CCC(C(C)(C)C)C4)nc2N1 (configuration not stated)	-3	50	115	102	-1.4	i	0.66
COc1ccc(OC)c(C(C)NC(=O)Nc2cccc(C(C)=O)c2)c1 (configuration not stated)	4	x	x	92	x	i	1.3
COc1cc(Cl)c(C)cc1NC(=O)COC(=O)c1cc[n+]([O-])cc1	12	50	111	100	x	i	0.9
COc1ccc(C(=O)NN(C)c2nc(C(F)(F)F)nc3ccccc23)cc1	-7	x	x	104	x	i	0.68
CCOC(=O)COc1ncn(-c2ccccc2)n1	0	0	110	105	-2.3	i	1
Fc1ccc(Nc2nc(-c3ccncc3)nc3ccccc23)cc1F	-11	x	x	103	2.4	i	0.99
O=C(Cn1c2[n+](c3ccc(C(F)(F)F)cc31)CCCCC2)c1cccc([N+](=O)[O-])c1	-2	52	124	98	x	i	1.1
CCCCCCCCC(=O)N/N=C/c1cccc(Br)c1	-7	x	x	106	-0.8	i	1.5
Cc1cc(C(=O)CN2C(=O)NC3(CCCCC3)C2=O)c(C)n1Cc1ccco1	-4	x	x	97	x	i	0.96
CCCCNC(=O)Cn1cnc2ccc(S(=O)(=O)N3CCC(C)CC3)cc2c1=O	5	x	x	99	x	i	1.1
Cc1ccc(OCCn2nc3ccccc3n2)c(C)c1	-5	48	88	107	-4.0	i	0.81
CC1CC(C)CN(CCC(=O)Nc2ccc3c(c2)CCC3)C1 (configuration not stated)	9	21	135	104	x	i	0.91
CC(C)N=C(NS(=O)(=O)NC(=O)c1ccccc1)c1ccccc1	9	x	x	109	x	i	0.97
Nc1nonc1-n1nnc(C(=O)N/N=C/c2ccccc2Cl)c1COc1ccc(F)cc1	x	x	x	105	x	i	0.7
CCNCC(=O)Nc1ccc(N2CCOCC2)cc1	-3	x	x	98	x	i	1.1
O=C(OCC(=O)N1CCOCC1)c1c(Cl)ccc(Cl)c1Cl	-1	x	x	100	x	i	1
Cc1cc2c(cc(C(=O)OCC(=O)NCc3cccs3)n2C(C)C)o1	-5	-75	80	99	-2.4	x	x
C#CCOCCOCCOCCNc1nc(N2CCN(C(=O)C(CCC(=O)O)n3cc(C(N)CC(C)C)nn3)CC2)nc(N2CCN(C(=O)C(Cc3cc4ccccc4[nH]3)n3cc(C(N)Cc4ccc(O)cc4)nn3)CC2)n1 (configuration not stated)	0	x	x	102	x	x	x
CN(C)/C=C1\C(=O)N(c2ccc([N+](=O)[O-])cc2)N=C1c1ccccc1	-10	-12	58	80	-3.1	i	0.84
COc1ccc(CCNC(=S)Nc2ccc(C)cc2C)cc1	-9	-34	62	103	-2.0	i	0.93
O=C(CSc1nc2nn(-c3ccccc3)c(=O)c-2c2n1CCCCC2)NCCc1ccccc1	-3	-192	77	94	x	i	0.96
Cc1ccc(Nc2nc(C(=O)N3CCC(C(=O)NCCN4CCOCC4)CC3)cs2)cc1	-11	-40	74	104	-2.6	i	0.77
COC(=O)c1c(NC(=O)C2CC=CCC2C(=O)O)sc(C)c1C (configuration not stated)	-4	23	108	102	-0.3	i	0.66
Cc1c(C(=O)Nc2ccc(F)c(F)c2)oc2ccc(S(=O)(=O)N3CCCCC3)cc12	3	-35	46	99	-2.7	i	0.86
O=C(CSc1ccc(Cl)cc1)N1CCOCC1	-6	33	84	87	-2.1	i	1
Cc1ccc(/C=N/N2CCN(c3ccccn3)CC2)cc1	7	44	90	107	x	i	1
C=CCO/N=C(/C)c1ccc(Oc2cnccn2)cc1	-5	x	x	104	x	i	0.93
COC(=O)Cc1c(C)nc2nc(-c3cccnc3)[nH]n2c1=O	-1	28	54	102	-2.0	i	0.81
O=C(Cn1cccc1)Nc1ccc(F)cc1F	-4	x	x	99	-2.7	i	1
Cc1ccc(C(=O)Cn2c(NCCO)nc3ccccc32)cc1	53*	x	x	96	-0.6	i	1
CCOC(=O)c1c(NC(=O)/C=C/C(=O)O)sc(C)c1-c1ccc(C)c(C)c1	0	x	x	86	x	i	0.91

Single entries from the list.
COC(=O)Cc1c(C)nc2nc(-c3cccnc3)[nH]n2c1=O @ Insulin prom inh cell count: 54
COC(=O)c1c(NC(=O)C2CC=CCC2C(=O)O)sc(C)c1C (configuration not stated) @ Insulin prom inh: 23

Additional compounds follow:
Compound	PKD1 kinase inh	Insulin prom inh	Insulin prom inh cell count	RGS16-Gao HTS	GALR2 ag	HSV augment	HSV augment primary fold
O=C(CSc1nnc(-c2cccnc2)o1)Nc1ccc(Cl)cc1	0	20	71	109	x	i	0.84
Cc1c(C(=O)NCC2CCCO2)oc2ccc3c(c12)C(=O)CC(C)(C)O3 (configuration not stated)	1	-57	134	98	0.7	i	0.92
O=C1c2cccc3cccc(c23)C(=O)N1c1ccc2ncccc2c1	-2	-454	54	102	-0.3	i	1.1
CCCCNC(=O)CSc1nccn1Cc1ccccc1	-18	45	123	97	0.8	i	1.3
CN(C)CCNC(=O)c1cccc(S(=O)(=O)Nc2ccc(F)cc2)c1	-6	x	x	93	x	i	1.2
O=C(Nc1ccc(S(=O)(=O)NCc2cccnc2)cc1)c1ccccc1Cl	-7	-48	109	104	-1.1	i	1
CCn1ccc(C(=O)N2CCOCC2)n1	3	-37	68	98	x	i	1.1
O=C(Nc1ccc(-n2cnnn2)cc1)C(c1ccccc1)c1ccccc1	-8	x	x	97	x	i	0.99
CC1CN(S(=O)(=O)N(C)C)CCN1S(=O)(=O)N(C)C (configuration not stated)	1	13	57	103	0.5	i	0.87
CCNC(=O)NNC(=O)C1CC(c2cccs2)=NO1 (configuration not stated)	-6	15	79	101	x	i	1.1
COc1cc(C(=O)Nn2c(O)c(C3=c4ccccc4=NC3=O)sc2=S)ccc1O	x	x	x	98	x	i	0.9
CO/N=C/CC(=O)c1cnc(-c2ccccc2)s1	-2	40	55	102	x	i	0.9
COc1cc(C=O)ccc1OCCOCCOc1ccc(Cl)cc1Cl	10	-177	3	x	-1.7	i	0.91
COc1cccc(NC(=O)Nc2cnccn2)c1	1	x	x	95	x	i	1.2
CC(=O)c1cccc(NC(=O)COc2ccccc2)c1	1	16	84	101	-1.7	i	1.1
CC(C)(C)C(=O)NC(=S)Nc1ccc(Cl)c(C(=O)O)c1	5	x	x	102	x	i	1
COc1cccc(CNC(=O)CCC2CCCN(C(=O)c3csc(C(C)C)n3)C2)c1 (configuration not stated)	3	x	x	101	x	i	1.2
CNc1nc(Nc2ccc(C(C)=O)cc2)nc(OC(C(F)(F)F)C(F)(F)F)n1	-9	29	171	109	-2.9	i	0.8
O=C(CNC(=O)C(c1ccccc1)c1ccccc1)OCC(=O)c1cccs1	-9	x	x	103	0.4	i	1
NS(=O)(=O)c1cc(C(=O)OCC(=O)Nc2ccc(N3CCCCC3)cc2)ccc1Cl	x	x	x	99	x	i	0.93

Five of these compounds in another layout.
Value order – PKD1 kinase inh	Insulin prom inh	Insulin prom inh cell count	RGS16-Gao HTS	GALR2 ag	HSV augment	HSV augment primary fold
COc1cccc(NC(=O)Nc2cnccn2)c1
  1	x	x	95	x	i	1.2
CC(=O)c1cccc(NC(=O)COc2ccccc2)c1
  1	16	84	101	-1.7	i	1.1
CC(C)(C)C(=O)NC(=S)Nc1ccc(Cl)c(C(=O)O)c1
  5	x	x	102	x	i	1
COc1cccc(CNC(=O)CCC2CCCN(C(=O)c3csc(C(C)C)n3)C2)c1 (configuration not stated)
  3	x	x	101	x	i	1.2
CNc1nc(Nc2ccc(C(C)=O)cc2)nc(OC(C(F)(F)F)C(F)(F)F)n1
  -9	29	171	109	-2.9	i	0.8

Continued:
Compound	PKD1 kinase inh	Insulin prom inh	Insulin prom inh cell count	RGS16-Gao HTS	GALR2 ag	HSV augment	HSV augment primary fold
O=C(O)c1ccc(N/N=C/c2ccc3ncccc3c2)cc1	-11	x	x	81	-0.2	i	0.97
Cc1ccc(CN2CCN(CC(=O)N/N=C/c3ccc(C)o3)CC2)cc1	x	x	x	105	x	i	1.2
O=C(OC(C(=O)NCC1CCCO1)c1ccc(F)cc1)c1cccs1 (configuration not stated)	3	-29	141	165	-2.2	i	0.95
O=C(/C=C/c1ccccc1)NC(=S)NNC(=O)c1ccco1	-8	32	120	98	-0.8	i	1
COc1ccc(CNC(=O)COC(=O)c2cnccn2)cc1	-4	29	165	108	-5.2	i	0.9
CN(C)C(=O)CSc1nc(-c2ccccc2)nc2c1CCCC2	-2	-167	116	101	-2.3	i	0.95
Cc1cc(C(=O)NNC(=O)NC(C)C)no1	x	x	x	101	x	i	0.86
O=C(NCc1cccnc1)Nc1ccc(F)cc1F	-1	-257	54	101	-2.2	i	1
COc1ccc(S(=O)(=O)N2CCC(C(=O)c3ccc4c(c3)OCCO4)CC2)cc1	-4	-34	186	101	-0.8	i	0.94
O=C(Nc1ccc(N2CCOCC2)cc1)c1cccnc1	4	3	94	102	-2.9	i	0.8
Cc1cccc(-n2c(Cc3ccccc3)n[nH]c2=S)c1	-11	5	40	143	x	i	1
Cc1[nH]c(=O)c(C(=O)c2ccccc2O)cc1C(=O)O	-2	x	x	97	x	i	1
CCOc1ccc2c(c1)C(C)=CC(C)(C)N2C(=O)Nc1ccccc1F	5	-30	193	95	-0.7	i	1
Cc1csc(NC(=O)CSc2ccc3nnc(CCNS(=O)(=O)c4ccccc4)n3n2)n1	-10	x	x	60	-0.3	i	1.1
OC(COc1ccccc1)CN1CCOCC1 (configuration not stated)	-4	-43	34	105	-0.6	i	0.78
CN=C(Nc1ccc(C(=O)OC)cc1)SC1CC(=O)N(c2ccccc2F)C1=O (configuration not stated)	2	-8	105	115	-3.4	i	0.97
O=C(COC(=O)c1ccccc1Nc1ccccc1)Nc1ccccc1	1	9	93	104	-0.7	i	0.99
CC1(C(=O)NC2CCCC2)CCC(=O)N1CCC1=CCCCC1 (configuration not stated)	-1	18	142	91	-0.3	i	1.1
Cc1cc(=O)[nH]c(SCC(=O)Nc2nnc(CC(C)C)s2)n1	-6	x	x	101	-0.9	i	0.86
CCC(C)NC(=O)COC(=O)c1ccc(Cl)cc1O (configuration not stated)	-7	-47	96	102	x	i	1
O=C(NCc1cccs1)c1ccncc1	0	18	86	96	-2.6	i	0.84
O=C(NCc1ccccc1)C(c1ccncc1)N(C(=O)c1csnn1)C1CC1 (configuration not stated)	1	-54	239	110	-3.2	i	1.1
Cc1ccc(C(=O)Cn2nnc3c(sc4nc5c(c(-c6ccccc6)c43)CCC5)c2=O)cc1	1	x	x	94	-0.6	i	0.98
CCCN(CCC)C(=O)C1c2ccccc2Oc2ccccc21	4	-30	61	97	-0.1	i	0.86
C=CCNc1nc2c(c(=O)n(C)c(=O)n2C)n1Cc1ccc(F)cc1	-5	x	x	106	-1.1	i	0.88
Cn1c(N)c(C(=O)CSc2nnc(-c3ccccc3F)n2N)c(=O)n(C)c1=O	x	x	x	102	x	i	0.93
CCCn1c(NC(=O)C23CC4CC(CC(O)(C4)C2)C3)nc2ccccc21	0	-27	33	113	x	i	0.95
